Screening data: PubChem BioAssay, Broad Institute
Vaccinia inh: blocks a specific stage of Vaccinia orthopoxvirus infection, primary screen, cell-based, single point; Vaccinia-infected cells, mCherry/Venus stage reporter fluorescence; stronger effect = lower value; some inactives read as strong as hits; actives 0.01% (n = 89,000); activity change (mCherry), % (concentration not given with the values);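 active means mCherry past -33% and 40 or more points under the early reporter, replicates agreeing; inconclusive means past -33% without that gap or agreement; tested in A549 cells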;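 further: scaled between vehicle wells and reference inhibitor wells; 23 nL library stock went into each well; one replicate is shown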
Vaccinia inh Venus: further read-out of Vaccinia inh, marked with its call; activity change (Venus), %; measured here: Venus reporter, other viral stage;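 negative = less Venus signal; first of two replicates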
Active calls of the source: *; ? = inconclusive; · = not tested or not shown. Not all compounds are listed; the hit share may differ from the screen's.

SMILES | Vaccinia inh | Vaccinia inh Venus
CO[C@@H]1CN(C)C(=O)c2ccc(NC(=O)C3CCC3)cc2OC[C@@H](C)N(C(=O)NC(C)C)C[C@@H]1C | 16.8 | 12.3
Cc1noc(C)c1NC(=O)Nc1ccc2c(c1)CC(=O)N([C@@H](C)CO)C[C@H](C)[C@@H](CN(C)C(=O)Nc1ccc(C(F)(F)F)cc1)O2 | 17.8 | 7.9
C[C@@H]1CN([C@@H](C)CO)C(=O)c2cccc(NC(=O)Nc3ccc(C(F)(F)F)cc3)c2O[C@@H]1CN(C)C(=O)Nc1ccccc1 | ? | ·
C[C@@H]1CN([C@@H](C)CO)C(=O)c2ccccc2-c2ccccc2CO[C@H]1CN(C)S(=O)(=O)c1ccc(C#N)cc1 | 11.6 | 5.1
C[C@H]1CN([C@@H](C)CO)C(=O)c2cc(-c3cccc(C#N)c3)cnc2O[C@H]1CN(C)Cc1ccncc1 | 18.4 | 20.3
CCS(=O)(=O)N1CC(=O)N2[C@H](CO)[C@@H](c3ccc(-c4ccccc4F)cc3)[C@H]2C1 | ? | ·
CCS(=O)(=O)Nc1ccc2c(c1)C(=O)N(C)[C@@H]1CC[C@H](CC(=O)NCc3ccccc3F)O[C@H]1CO2 | 6.6 | 11.0
O=C(Nc1nccs1)[C@@H]1[C@@H](CO)[C@@H]2Cn3c(ccc(-c4cccnc4)c3=O)[C@@H]2N1CC1CCCC1 | 12.7 | 7.3
O=C(C1CC1)N1C[C@H]2[C@@H](c3ccccc31)[C@@H](CO)N2C(=O)Nc1cccc(F)c1 | -6.2 | 1.8
Cc1ccc(S(=O)(=O)N[C@@H]2CC[C@H](CCn3cc(-c4cccnc4)nn3)O[C@@H]2CO)cc1 | -4.3 | 0.6
CCCNC(=O)N1CC2(C1)[C@@H](c1ccccc1)[C@@H](CO)N2Cc1ccc(F)cc1 | -11.7 | -4.7
CC(=O)N(C)C[C@@H]1[C@H](c2ccc(-c3cccc(C#N)c3)cc2)[C@H](CO)N1C(C)=O | 16.6 | 4.2
O=C(C1CCOCC1)N1CC(=O)N2[C@H](C1)[C@@H](c1ccc(C#CC3CC3)cc1)[C@@H]2CO | -4.4 | -1.7
C[C@H]1CN([C@@H](C)CO)C(=O)c2cc(-c3ccccc3)cnc2O[C@H]1CN(C)C(=O)NC1CCCC1 | 1.6 | -0.9
CCCC#Cc1ccc2c(c1)O[C@H](CN(C)C(=O)c1ccccc1F)[C@@H](C)CN([C@@H](C)CO)S2(=O)=O | -14.9 | -22.6
CC(=O)N(C)C[C@H]1Oc2cc(C#CC3CCCC3)ccc2S(=O)(=O)N([C@@H](C)CO)C[C@@H]1C | -21.4 | -17.1
C[C@H](O)C#Cc1ccc2c(c1)O[C@@H](CN(C)Cc1ccccc1)[C@H](C)CN([C@@H](C)CO)S2(=O)=O | -22.0 | -18.1
Cc1ccc(-c2ccc(C3[C@@H]4CN(C(=O)Nc5ccc(C(F)(F)F)cc5)C[C@H]3N4)cc2)cc1 (some centres undefined) | ? | ·
C[C@H]1CN([C@@H](C)CO)C(=O)c2cc(C#Cc3ccccc3)cnc2O[C@H]1CN(C)S(=O)(=O)c1ccccc1F | ? | ·
Cc1noc(C)c1NC(=O)Nc1ccc2c(c1)C(=O)N([C@@H](C)CO)C[C@@H](C)[C@@H](CN(C)S(=O)(=O)c1c(C)noc1C)O2 | 10.3 | 3.9
Cc1noc(C)c1S(=O)(=O)N(C)C[C@H]1OCCCC[C@H](C)Oc2ccc(NC(=O)Nc3ccc(F)cc3)cc2C(=O)N([C@@H](C)CO)C[C@@H]1C | -13.2 | -2.6
C[C@H]1CN([C@@H](C)CO)C(=O)Cc2cc(NC(=O)CCN3CCOCC3)ccc2O[C@H]1CN(C)S(=O)(=O)c1cccs1 | 2.6 | 6.9
C[C@@H]1CN([C@@H](C)CO)C(=O)c2cc(NC(=O)Nc3ccc(C(F)(F)F)cc3)ccc2O[C@H]1CN(C)S(=O)(=O)c1ccc(Cl)cc1 | -14.2 | -13.2
C[C@H](CO)N1C[C@H](C)[C@@H](CN(C)C(=O)Cc2ccccn2)Oc2ncc(-c3cncnc3)cc2C1=O | 11.6 | 14.7
C[C@@H]1CN([C@@H](C)CO)C(=O)Cc2cc(NS(=O)(=O)c3cccs3)ccc2O[C@H]1CN(C)C(=O)Nc1ccc2c(c1)OCO2 | -8.5 | 8.5

(more compounds)
SMILES | Vaccinia inh | Vaccinia inh Venus
C[C@@H]1CN([C@@H](C)CO)C(=O)c2cc(NC(=O)NC3CCCCC3)ccc2O[C@H]1CN(C)Cc1ccc(-c2ccccc2)cc1 | ? | ·
C[C@H]1CCCCO[C@H](CN(C)S(=O)(=O)c2cn(C)cn2)[C@@H](C)CN([C@@H](C)CO)C(=O)c2cc(NC(=O)Nc3cccc4ccccc34)ccc2O1 | 26.4 | 14.1
CC(C)NC(=O)N(C)C[C@H]1Oc2cc(C#Cc3cccc(F)c3)ccc2S(=O)(=O)N([C@@H](C)CO)C[C@@H]1C | ? | ·
O=C(c1ccncc1)N1CC2(C1)[C@@H](c1ccccc1)[C@@H](CO)N2CC1CCOCC1 | 9.8 | 14.2
C[C@H](CO)N1C[C@H](C)[C@@H](CN(C)C(=O)Nc2ccc(F)cc2)Oc2cc(/C=C/c3ccccc3)ccc2S1(=O)=O | ? | ·
CC(C)C#Cc1cnc2c(c1)C(=O)N([C@H](C)CO)C[C@H](C)[C@@H](CN(C)C(=O)Cc1ccccn1)O2 | 7.9 | 7.3
C[C@@H]1CN([C@H](C)CO)C(=O)c2cccc(NC(=O)c3ccno3)c2O[C@H]1CN(C)S(=O)(=O)c1cccs1 | 22.1 | 20.3
COc1cccc(NC(=O)N(C)C[C@H]2Oc3ncc(C4=CCCCC4)cc3C(=O)N([C@H](C)CO)C[C@H]2C)c1 | -15.1 | -11.8
C[C@@H]1CCCCO[C@H](CN(C)Cc2ccccc2)[C@@H](C)CN([C@@H](C)CO)C(=O)c2cc(NC(=O)CCCN(C)C)ccc2O1 | -11.1 | 8.0
C[C@@H]1CN([C@H](C)CO)C(=O)c2cc(NC(=O)c3ccncc3)ccc2O[C@H]1CN(C)S(=O)(=O)c1ccccc1 | 17.6 | 11.8
C[C@@H]1CCCCO[C@H](CN(C)S(=O)(=O)c2ccccc2)[C@H](C)CN([C@@H](C)CO)C(=O)c2cc(NC(=O)Nc3ccc(F)cc3)ccc2O1 | 9.8 | 3.3
CC(C)NC(=O)N(C)C[C@H]1Oc2ccc(NC(=O)Nc3ccc(F)cc3)cc2CC(=O)N([C@@H](C)CO)C[C@@H]1C | 9.0 | 11.1
O=C(NC[C@@H]1N[C@@H](CO)[C@H]1c1ccccc1)C1CC1 | 19.1 | 13.0
Cc1noc(C)c1S(=O)(=O)Nc1ccc2c(c1)C(=O)N([C@H](C)CO)C[C@@H](C)[C@H](CN(C)C(=O)c1ccncc1)OCCCC[C@@H](C)O2 | 11.0 | 10.3
COc1ccc(NC(=O)N[C@@H]2CC[C@H](CCn3cc(-c4ccc(OC)cc4)nn3)O[C@H]2CO)cc1 | -13.0 | -10.3
CN1C(=O)c2cc(NC(=O)c3cnccn3)ccc2OC[C@H]2O[C@H](CC(=O)NCC3CC3)CC[C@H]21 | 20.8 | 9.2
O=C(C[C@@H]1CC[C@H]2[C@@H](COC[C@@H](O)CN2C(=O)Nc2ccc(Cl)c(Cl)c2)O1)NCc1ccccc1 | -3.2 | -5.1
Cc1ccccc1S(=O)(=O)N1[C@H](C#N)[C@@H](c2ccc(C#CC3CC3)cc2)[C@@H]1CO | 6.1 | 12.8
C[C@@H]1CCCCO[C@@H](CN(C)C(=O)CCC(F)(F)F)[C@@H](C)CN([C@@H](C)CO)C(=O)c2cc(NC(=O)CCC(F)(F)F)ccc2O1 | -0.1 | -4.6
O=C(NC1CCC1)[C@H]1[C@H](CO)[C@H]2Cn3c(ccc(-c4ccccc4)c3=O)[C@H]2N1CC1CC1 | 5.3 | 2.3
CO[C@H]1CN(C)C(=O)c2ccc(NC(=O)C3CCOCC3)cc2OC[C@H](C)N(CC2CC2)C[C@H]1C | 7.4 | 12.0
C[C@@H]1CN([C@H](C)CO)C(=O)c2cccc(NC(=O)Nc3ccc(F)cc3)c2O[C@H]1CN(C)Cc1ccc(-c2ccccc2)cc1 | -12.4 | -15.4
C[C@@H](NC(=O)C[C@@H]1CC[C@@H]2[C@H](COC[C@H](O)CN2C)O1)c1ccccc1 | 11.0 | 9.6
C[C@@H]1CN([C@H](C)CO)S(=O)(=O)c2ccc(C3=CCCC3)cc2O[C@H]1CN(C)C(=O)c1cccnc1 | 11.2 | 12.7
CO[C@@H]1CN(C)C(=O)c2cc(NS(C)(=O)=O)ccc2OC[C@H](C)N(CC2CC2)C[C@@H]1C | 4.1 | 7.3

New compounds follow:
SMILES | Vaccinia inh | Vaccinia inh Venus
Cc1cccc(S(=O)(=O)N2C[C@@H](O)COC[C@@H]3O[C@H](CC(=O)NCCCN4CCOCC4)CC[C@H]32)c1 | 6.3 | 4.9
C[C@H](CO)N1C[C@H](C)[C@H](CN(C)C(=O)CCC(F)(F)F)OCCCC[C@H](C)Oc2ccc(NS(=O)(=O)c3ccc(Cl)cc3)cc2C1=O | ? | ·
COc1cccc(CNC(=O)C[C@H]2CC[C@H]3[C@@H](COc4ccc(NC(=O)c5cccs5)cc4C(=O)N3C)O2)c1 | 1.6 | -3.6
COc1ccc2c3c(n(C)c2c1)[C@H](CO)N(C(=O)NC1CCCC1)CC31CCN(C(C)=O)CC1 | 26.2 | 18.4
Cc1noc(C)c1S(=O)(=O)Nc1ccc2c(c1)C(=O)N([C@@H](C)CO)C[C@@H](C)[C@@H](CN(C)S(=O)(=O)c1ccc(Cl)cc1)OCCCC[C@H](C)O2 | -29.5 | -21.9
C[C@@H]1CN([C@@H](C)CO)C(=O)c2cc(-c3ccc(F)cc3)cnc2O[C@@H]1CN(C)C(=O)c1ccc(F)cc1 | -13.5 | -6.3
CCCC#Cc1ccc([C@H]2[C@@H](CO)N3C(=O)CN(C(=O)NCCC)C[C@@H]23)cc1 | 4.2 | 6.6
CO[C@@H]1CN(C)C(=O)c2cc(NC(=O)C3CCCCC3)ccc2OC[C@@H](C)N(C(=O)Nc2ccc(C(F)(F)F)cc2)C[C@H]1C | ? | ·
COc1ccc(S(=O)(=O)Nc2ccc3c(c2)C(=O)N([C@@H](C)CO)C[C@H](C)[C@@H](CN(C)S(=O)(=O)c2ccc(C)cc2)OCCCC[C@H](C)O3)cc1 | -27.3 | -34.7
C[C@@H]1CN([C@@H](C)CO)C(=O)c2cc(NC(=O)C3CCCCC3)ccc2O[C@@H]1CN(C)Cc1ccc(C(F)(F)F)cc1 | ? | ·
CC(C)NC(=O)Nc1cccc2c1O[C@@H](CN(C)S(=O)(=O)c1ccc(Cl)cc1)[C@H](C)CN([C@H](C)CO)C2=O | 3.3 | -5.0
O=C(NCc1ccncc1)[C@@H]1[C@@H](CO)[C@@H]2Cn3c(ccc(-c4cccnc4)c3=O)[C@@H]2N1C(=O)C1CC1 | 1.9 | 1.5
CC=Cc1ccc2n(c1=O)C[C@H]1[C@H](CO)[C@@H](C(=O)NCC3CCCCC3)N(C(C)=O)[C@@H]21 (mixture of isomers) | 16.3 | 8.8
O=C(NC[C@@H]1CC[C@@H]2[C@@H](CN2Cc2cc(-c3ccccc3)on2)O1)c1ccc2c(c1)OCO2 | -12.1 | -5.4
C[C@H]1CN([C@@H](C)CO)C(=O)c2cc(-c3cncnc3)cnc2O[C@H]1CN(C)C(=O)c1ccccc1F | 14.1 | 1.2
CC(C)CC#Cc1ccc2c(c1)O[C@@H](CN(C)Cc1ccc(F)cc1)[C@H](C)CN([C@@H](C)CO)S2(=O)=O | -1.7 | -9.6
C[C@H](O)C#Cc1cnc2c(c1)C(=O)N([C@@H](C)CO)C[C@@H](C)[C@H](CN(C)C(=O)Nc1ccc(C(F)(F)F)cc1)O2 | -19.2 | -17.3
O=C(C[C@H]1CC[C@H]2[C@@H](COC[C@@H](O)CN2C(=O)Nc2ccc(Cl)c(Cl)c2)O1)NC1CCC1 | -22.8 | -12.7
O=C(C[C@H]1C=C[C@@H](NC(=O)Nc2ccc3c(c2)OCO3)[C@@H](CO)O1)NCCCN1CCOCC1 | 3.7 | 2.0
CC(C)CC#Cc1ccc2c(c1)O[C@H](CN(C)C(=O)c1cccc(F)c1)[C@H](C)CN([C@H](C)CO)S2(=O)=O | ? | ·
COc1ccccc1CNC(=O)C[C@H]1CC[C@@H]2[C@H](COC[C@H](O)CN2C(=O)Nc2ccc(C(F)(F)F)cc2)O1 | ? | ·
CCNC(=O)C[C@H]1CC[C@H]2[C@H](COc3ccc(NC(=O)C4CCCCC4)cc3C(=O)N2C)O1 | 6.7 | 2.9
CO[C@H]1CN(C)C(=O)c2ccc(NC(=O)C3CCC3)cc2OC[C@H](C)N(Cc2ccncc2)C[C@@H]1C | 2.4 | 3.4
COc1ccc(S(=O)(=O)N(C)C[C@@H]2OCCCC[C@H](C)Oc3ccc(NC(=O)Nc4c(C)noc4C)cc3C(=O)N([C@@H](C)CO)C[C@@H]2C)cc1 | 6.8 | 1.7

Reformatted as comma-separated lines: six of the compounds above.
Molecule,Vaccinia inh,Vaccinia inh Venus
CC(C)NC(=O)Nc1cccc2c1O[C@@H](CN(C)S(=O)(=O)c1ccc(Cl)cc1)[C@H](C)CN([C@H](C)CO)C2=O,3.3,-5.0
O=C(NCc1ccncc1)[C@@H]1[C@@H](CO)[C@@H]2Cn3c(ccc(-c4cccnc4)c3=O)[C@@H]2N1C(=O)C1CC1,1.9,1.5
CC=Cc1ccc2n(c1=O)C[C@H]1[C@H](CO)[C@@H](C(=O)NCC3CCCCC3)N(C(C)=O)[C@@H]21 (mixture of isomers),16.3,8.8
O=C(NC[C@@H]1CC[C@@H]2[C@@H](CN2Cc2cc(-c3ccccc3)on2)O1)c1ccc2c(c1)OCO2,-12.1,-5.4
C[C@H]1CN([C@@H](C)CO)C(=O)c2cc(-c3cncnc3)cnc2O[C@H]1CN(C)C(=O)c1ccccc1F,14.1,1.2
CC(C)CC#Cc1ccc2c(c1)O[C@@H](CN(C)Cc1ccc(F)cc1)[C@H](C)CN([C@@H](C)CO)S2(=O)=O,-1.7,-9.6
